Choline anaer gr: blocks anaerobic gram-negative growth on choline; Gram-negative bacterium anaerobic choline minimal medium, absorbance growth; hits give low values; many inactives read as strong as hits in the columns shown; calls only; 0.2% of 55,000 active; AID 1963822;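 active = growth z-score on choline under -2 at 7 or 20 h with little or no fall on glycerol, limits in tiers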;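 note: stock transfer was 300 nL into about 50 µL; the organism is E. coli; final concentration not given here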
Choline anaer gr early: recorded beside Choline anaer gr, whose call it bears; z-score; measured here: choline growth z-score, timepoint 1;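 score of optical density at 7 h as mean of two plates; lower means less growth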
Numbers without * were called inactive; i = inactive.

cpd	canonical_smiles	Choline anaer gr	Choline anaer gr early
1	O=C1Nc2cc(Cl)ccc2Oc2ccc(S(=O)(=O)N3CCCC3)cc21	i	-0.82
2	CNC(=O)N1CCC(OC2CCCC2)CC1	i	0.55
3	COc1ccccc1C(=O)N1CCN(c2ncnc3c2c(-c2ccccc2)cn3-c2ccccc2)CC1	i	1.1
4	O=C(CCc1nc(CS(=O)(=O)c2ccc(F)cc2)no1)N1CCOCC1	i	0.78
5	CC(=O)NC(C)c1nc(-c2ccccc2)no1 (stereo not given)	i	-1.2
6	CCc1ccc(CNC(=O)C2CCN(c3ncccc3S(=O)(=O)N3CCCCC3)CC2)cc1	i	-0.59
7	O=C(c1ccc(-c2noc(C3CC3)n2)cc1)N1CCN(c2nc3ncccc3o2)CC1	i	-0.39
8	O=C(NC1CCCCC1)c1cn(-c2ccccc2)cn1	i	-1
9	O=c1[nH]c(SCc2cccc(Cl)c2)nc2c1CN(Cc1ccccc1)CC2	i	0.62
10	COc1ccc(NS(=O)(=O)c2c(C)sc(C)c2-c2cc(C(F)(F)F)on2)cc1OC	i	-0.6
11	CC(C)c1cc(C2CCCN2Cc2cc(Br)ccc2F)no1 (stereo not given)	i	0.8
12	CCN1C(=O)CCc2cc(NC(=O)CN3C(=O)c4ccccc4C3=O)ccc21	i	-0.57
13	COc1cccc(CNC(=O)c2ccc(-n3c(=O)[nH]c4c([nH]c5ccc(OC)cc54)c3=O)cc2)c1	i	-0.06
14	COc1ccc(-c2nc(CN3CCN(C(=O)c4ccc(Br)cc4)CC3)c(C)o2)cc1	i	-0.12
15	CCN(CC)C(=O)CSCc1noc(-c2ccc(C)cc2)n1	i	-0.26
16	COc1cc2c(cc1OC)C(c1ccc(C)cc1)CC(=O)N2 (stereo not given)	i	1.9
17	COc1ccccc1-c1noc(-c2nnn(Cc3nc(-c4cccc(Cl)c4)oc3C)c2C)n1	i	-0.28
18	Cc1nn(CCCC(=O)NCc2ccccc2Cl)c(=O)c2c(-n3cccc3)n(-c3ccccc3)nc12	i	-0.48
19	Cc1[nH]c(C)c(S(=O)(=O)N2CCc3ccccc3C2)c1C(=O)N1CCCC1	i	-0.35
20	Cc1ccc(Nc2ncc(C(=O)N3CCN(c4ccccc4)CC3)c3ccccc23)cc1Cl	i	2.2
21	CCCCN1CCN(C(=O)C2CC(=O)N(c3ccc4c(c3)CCN4C(=O)C3CC3)C2)CC1 (stereo not given)	i	0.06
22	Cc1nc2nc(-c3ccc(C(C)(C)C)cc3)nn2c(C)c1CC(=O)Nc1ccc(Br)cc1	i	-0.65
23	COc1cc(OC)cc(C(=O)Nc2nc3ccc(S(=O)(=O)N4CCCCC4)cc3s2)c1	i	-0.74
24	N=C(N)SCCN	i	-0.18
25	COc1ccc(Cl)cc1NS(=O)(=O)c1cc(-c2cc(C)[nH]n2)ccc1C	i	0.08
26	CCc1ccc(CNC(=O)CN(c2ccc(C)cc2)S(=O)(=O)N(C)C)cc1	i	0.01
27	CC(C)Cn1c(=O)c2ccccc2n2c(=O)n(CC(=O)NC3CCCCC3)nc12	i	0.2
28	CCOc1ccc(S(=O)(=O)N2CCN(c3ccccc3)CC2)cc1-c1nc(C(C)C)no1	i	0.87
29	O=C(CSc1ncnc2nc(N3CCCC3)sc12)Nc1ccc(Br)cc1	i	0.45
30	COc1cccc(CNC(=O)c2ccc(Cl)c(-n3c(C)nc4cccnc43)c2)c1	i	1.2

4 entries from above, field by field.
27	CC(C)Cn1c(=O)c2ccccc2n2c(=O)n(CC(=O)NC3CCCCC3)nc12
  Choline anaer gr: i; Choline anaer gr early: 0.2
28	CCOc1ccc(S(=O)(=O)N2CCN(c3ccccc3)CC2)cc1-c1nc(C(C)C)no1
  Choline anaer gr: i; Choline anaer gr early: 0.87
29	O=C(CSc1ncnc2nc(N3CCCC3)sc12)Nc1ccc(Br)cc1
  Choline anaer gr: i; Choline anaer gr early: 0.45
30	COc1cccc(CNC(=O)c2ccc(Cl)c(-n3c(C)nc4cccnc43)c2)c1
  Choline anaer gr: i; Choline anaer gr early: 1.2

Looked up above:
Choline anaer gr early, no. 17 stands at -0.28
Choline anaer gr early, no. 24 stands at -0.18
Choline anaer gr early, no. 30 stands at 1.2

Next part
cpd	canonical_smiles	Choline anaer gr	Choline anaer gr early
31	CCc1cc2c(N3CCCC(C(=O)NC4CCCCC4)C3)ncnc2s1 (stereo not given)	i	0.27
32	O=C(NCCO)c1cnc2sccn2c1=O	i	0.76
33	CCOc1ccc(S(=O)(=O)N2CCN(c3cc(=O)n4nc(-c5ccccc5)sc4n3)CC2)cc1	i	-1.4
34	O=C(Nc1ccc2c(c1)OCCO2)C1CCN(c2ncnc3onc(-c4ccc(F)cc4)c23)CC1	i	-0.34
35	Cc1ccc(-c2nc(C(=O)Nc3cc(C)on3)c3n2CCCCC3)cc1	i	0.37
36	CN(C)CCNC(=O)c1cc2occc2c(Nc2ccc(F)cc2)n1	i	-0.39
37	Cc1ncc(C(=O)NC2CC2)c(N)n1	i	0.79
38	O=C(C(=O)N1CCN(Cc2ccccc2)CC1)c1c[nH]c2ccccc12	i	-0.41
39	Cc1ccc(NC(=O)CN2CCCN(Cc3cccc(Cl)c3)S2(=O)=O)c(Cl)c1	i	0.85
40	CCC(Oc1ccc(F)cc1)C(=O)NCc1csc(-c2ccc(OC)cc2)n1 (stereo not given)	i	0.3
41	CN1CCN(CCNC(=O)CN2C(=O)COc3ccc(C(=O)N4CCCC4)cc32)CC1	i	0.17
42	O=C(CSc1nc(-c2ccc3c(c2)OCO3)nc2cc(=O)[nH]n12)NCC1CCCO1 (stereo not given)	i	-1.9
43	COc1ccc(Cl)cc1NS(=O)(=O)c1cc(N2C(=O)CCS2(=O)=O)ccc1OC	i	0.33
44	FC(F)(F)c1ccc(CN=C2Nc3ccccc3NC23CCCCCC3)cc1	i	0.56
45	Cc1nc(N2CCOCC2)cc(N2CCN(C(=O)Nc3ccc(F)cc3)CC2)n1	i	1.2
46	COc1ccc(C(C)NS(=O)(=O)c2cc(-c3nc(C(C)(C)C)cs3)cs2)cc1 (stereo not given)	i	0.63
47	CC(=O)Nc1ccc(C)cc1-c1nnc(SCC(=O)Nc2cc(C)cc(C)c2)[nH]c1=O	i	0.64
48	CCOC1O[C@H]([C@@H](COCc2ccccc2)OCc2ccccc2)[C@H](OCc2ccccc2)[C@H]1O (stereo not given in full)	i	0.62
49	CCC(=O)Nc1cccc(-c2noc(C3CCCN(C(=O)c4ccc(F)cc4)C3)n2)c1 (stereo not given)	i	-0.16
50	Cc1ccc(-c2nccc(Oc3cccc(C(=O)NC4CCCC4)c3)n2)cc1	i	0.74
51	Cc1ccc2c(c1)OCC(CC(=O)O)N2 (stereo not given)	i	-0.14
52	CCCNC(=O)Nc1cccc(-c2noc(-c3ccccc3Cl)n2)c1	i	1.4
53	CCN1CCN(c2nc3ncn(CC(=O)Nc4ccc5c(c4)OCCO5)c(=O)c3s2)CC1	i	0.55
54	CC(C)Cn1c(=O)c2nscc2n(CC(=O)N2CCCC2)c1=O	i	0
55	Cc1ccc(-c2ccc3nnc(C)n3n2)cc1S(=O)(=O)N1CCCC1	i	-0.11
56	CCOC(=O)c1c(C)[nH]c(CCC(=O)N2CCC(C)CC2)c1C	i	-0.04
57	O=C(Nc1ccc(F)cc1)c1cnc(N2CCCC2)nc1	i	0.76
58	C=Cc1ccc(Cn2cc(C(=O)c3ccc(C)cc3)c(=O)c3ccc(C)nc32)cc1	i	1.3
59	Cc1noc(C)c1CCNC(=O)c1cc2c(-c3ccc(Cl)cc3)nn(C)c2s1	i	-0.03
60	CC(C)C[C@@H](/C=C/S(C)(=O)=O)NC(=O)[C@H](CC(C)C)NC(=O)[C@H](CC(C)C)NC(=O)OCc1ccccc1	i	1
61	CCOC(=O)c1cc2sccc2n1CCC(=O)O	i	-0.54
62	CC(C)c1ccc(NC(=O)CCCc2nc3cccnc3n2Cc2cccnc2)cc1	i	-0.36
63	O=C(Nc1ccc2c(c1)OCCO2)c1ccc(Nc2ccnc(-c3ccccc3)n2)cc1	i	0.73
64	COc1ccc(S(=O)(=O)Nc2ccc(Nc3cc(N(C)C)nc(C)n3)cc2)cc1C	i	-0.52
65	CC=C(C)C(=O)O[C@H]1[C@H](OC(C)=O)C2(CO)C(CC1(C)C)C1=CCC3C4(C)CCC(OC5O[C@H](C(=O)O)[C@@H](O[C@@H]6O[C@H](CO)[C@@H](O)[C@H](O)[C@H]6O)[C@H](O)[C@H]5O[C@@H]5O[C@H](CO)C(O)[C@H](O)[C@H]5O)[C@](C)(CO)C4CCC3(C)[C@]1(C)C[C@H]2O (stereo not given in full)	i	0.73
66	O=C(c1c2c(nc3ccccc13)C(=O)N(C1CCCCC1)C2)N1CCOCC1	i	-1.3
67	Cc1c(NC(=O)c2ccc(CN3CCc4ccccc4C3)cc2)c(=O)n(-c2ccccc2)n1C	i	-0.24
68	COCCNC(=O)C1CCCN(c2ncnc3onc(-c4ccc(F)cc4)c23)C1 (stereo not given)	i	-0.24
69	CCOC(=O)c1nc2ccccc2nc1NC1CCCCC1	i	-0.58
70	COc1ccc(-c2[nH]nc3c2C(c2ccccc2Cl)C2=C(CC(C)(C)CC2=O)N3)cc1 (stereo not given)	i	-0.47
71	CCc1ccc(NCc2cc3ccc(OC)cc3n(CC(=O)NCCc3ccccc3)c2=O)cc1	i	0.28
72	COc1ccc(-c2nn3c(N4CCN(CCO)CC4)cc(C)nc3c2C)cc1OC	i	0.49
73	COc1cc(C2CC(=O)Nc3nc(N)[nH]c(=O)c32)ccc1OCc1ccccc1Cl (stereo not given)	i	-0.18
74	O=c1ccn(-c2ccccc2)nc1-c1nc(-c2ccccn2)no1	i	-0.64
75	COc1ccc(OC)c(NC(=O)N2CCc3c(c(-c4nnc(-c5ccc(F)cc5)o4)nn3C)C2)c1	i	-0.15
76	Cc1cc(C)cc(NC(=O)N2CCN3CCCCC3C2)c1 (stereo not given)	i	-0.71
77	CCC(=O)N1CCCC1c1nc2ccccc2n1CC(=O)N(c1ccccc1)C(C)C (stereo not given)	i	1
78	O=C(C1=CN(c2ccc3c(c2)OCO3)c2cc(Cl)ccc2S1(=O)=O)N1CCCC1	i	-0.02
79	CN1C(=O)c2ccccc2Sc2cc(-c3noc(CNC(=O)Cc4ccc(Cl)cc4)n3)ccc21	i	1.2
80	CCSc1nccn2nc(-c3ccc(C(C)C)cc3)cc12	i	-1.2
81	COCCCNC(=O)CN1c2ccccc2NC2=C(C(=O)CC(C)(C)C2)C1c1ccccc1 (stereo not given)	i	-0.16
82	COc1ccccc1CNC(=O)c1cc(-c2ccc(Cl)cc2)nc2n[nH]c(-c3ccccc3)c12	i	0.88
83	O=C(NCc1ccccc1)c1cccn1-c1nnc(N2CCOCC2)s1	i	-1.2
84	COc1cccc(-c2nc(SCC(=O)NCC3CCCO3)c(-c3ccccc3)[nH]2)c1 (stereo not given)	i	0.23
85	CCOC(=O)c1c(C)n(-c2ccc(C)cc2)c2ccc(OCC(O)CN(CC)CC)cc12 (stereo not given)	i	-0.75
86	COc1ccc(C2CCCN2S(=O)(=O)c2ccc3c(c2)OCCO3)cc1 (stereo not given)	i	-0.37
87	O=C(NCCCn1ccnc1)C1CC(=O)N(CCc2c[nH]c3ccc(Cl)cc23)C1 (stereo not given)	i	0.41
88	O=C(Nc1ccc2c(c1)Sc1ccccc1C(=O)N2C1CCCC1)c1cnccn1	i	-0.72
89	Cn1nc(C(=O)NCC2CCCO2)c2c1-c1ccsc1CC2 (stereo not given)	i	-0.48
90	COCCNC(=O)N1CCCN(c2nc3cc(F)ccc3n3cccc23)CC1	i	-0.99

Record cards, as listed above. Order of values: Choline anaer gr | Choline anaer gr early
COc1ccc(C2CCCN2S(=O)(=O)c2ccc3c(c2)OCCO3)cc1 (stereo not given) reads i | -0.37
COCCNC(=O)C1CCCN(c2ncnc3onc(-c4ccc(F)cc4)c23)C1 (stereo not given) reads i | -0.24
COc1ccc(-c2[nH]nc3c2C(c2ccccc2Cl)C2=C(CC(C)(C)CC2=O)N3)cc1 (stereo not given) reads i | -0.47

Following part.
cpd	canonical_smiles	Choline anaer gr	Choline anaer gr early
91	CC1=NOC(C)(CNC(=O)NC(C)(C)C)C1 (stereo not given)	i	0.75
92	CCc1ccc(-c2[nH]c3ccccc3c2NC(=O)Nc2ccccc2)cc1	i	0.03
93	CCS(=O)(=O)NC1CCN(C2=NS(=O)(=O)C(c3ccc(C)cc3)=C2C)CC1	i	0.11
94	O=C(C1CCCN(c2nc3cccnc3s2)C1)N1CCN(c2ccc(F)cc2)CC1 (stereo not given)	i	0.22
95	COc1ccc2nc(NC(=O)Cc3noc4ccccc34)sc2c1	i	1
96	CN1CCCN(c2ccc(NS(=O)(=O)c3ccc(Br)cc3)c(C(=O)O)c2)CC1	i	1.1
97	O=c1cc(-c2ccccc2F)[nH]c2cc3c(cc12)OCO3	i	0.25
98	CCOC(=O)C1CCN(c2nc3ccccc3n3c(=O)n(CC(=O)NC(C)(C)C)nc23)CC1	i	0.6
99	Cc1cc(C)cc(N(Cc2nnc3n2CCCCC3)C(=O)Nc2ccccc2)c1	i	-0.42
100	COc1ccccc1-c1nc2c3c4c(sc3ncn2n1)CCCC4	i	0.54
101	Cc1cc(C2CCCN2C(=O)c2c(C)noc2C)no1 (stereo not given)	i	0.47
102	CCCCCCCCCCCCCCC(F)C(=O)O (stereo not given)	i	0.91
103	CC(C)NC(=O)Cc1ccc(-n2c(=O)c3ccccc3n(CC(=O)Nc3ccc(F)cc3)c2=O)cc1	i	0.48
104	COc1ccc(C)cc1NS(=O)(=O)c1cc(-c2nc(C)c(C)s2)sc1C	i	0.22
105	O=C(CCS(=O)(=O)c1cc2c(cc1Br)CCN2C(=O)C1CC1)N1CCN(c2ccccn2)CC1	i	1.3
106	CS(=O)(=O)N1CCCN(C(=O)C2CCCC2)CC1	i	0.51

The list is partial. The share of hits here may be higher or lower than overall.
